2A Renilla: FMDV 2A StopGo reporter, Renilla signal; HEK cells with a luciferase reporter of 2A StopGo recoding; Potency, µM (series often up to 57.5 µM), without a hit: at the highest dose signal change, negative = less light; hit rate 0.32% among 120,000; AID 1745857; active means well fitted falling curve with a large enough effect; inconclusive means small, poorly fitted or top-dose-only effect; inactive means no such curve, though single readings can be large or run the other way; also: nearly all actives have a fitted effect of over 55% in size; overnight with compound
StopGo FLuc: FMDV 2A StopGo reporter, firefly signal | HEK cells with a luciferase reporter of 2A StopGo recoding | Potency, µM (titrated, usually from 57.5 µM), for inactives: at the top dose signal change, negative = less light | hit rate 0.23% among 120,000 | AID 1745856; active = well fitted falling curve with a large enough effect; inconclusive = small, poorly fitted or top-dose-only effect; inactive = no such curve, though single readings can be large or run the other way; also: nearly all actives have a fitted effect of over 60% in size; overnight with compound
* marks the source's active call; other numbers are inactive results; ? = inconclusive; & = joins results of further samples; [ ] = dose if it differs, or a comment. % is scaled to controls: 0 for no effect and ±100 for the full control effect; potency is read from the fitted curve at half-maximal effect.

SMILES	2A Renilla	StopGo FLuc
Cc1cc(C)cc(NC(=O)C2CCN(S(=O)(=O)c3cn(C)cn3)CC2)c1	-8%	-16%
COc1ccc(C2C(=O)N(C3CCC(C)CC3)CC(=O)N2Cc2ccccc2Cl)cc1OC (stereo not given)	-1%	-17%
COc1ccc2oc(=O)c(-c3csc(Nc4ccc(Cl)cc4)n3)cc2c1	11%	46%[activator]
COc1ccc(OCC(=O)OCc2cc(=O)n3nc(C4CC4)sc3n2)cc1	-6%	-6%
N#CC1=C(NC(=O)c2ccccc2)CCC(C#N)(c2ccccc2)C1 (stereo not given)	?	?
Cc1cccc(OCCN)c1	-3%	-3%
Cc1ccc2nc(N3CCN(c4cccc(Cl)c4)CC3)c3nnnn3c2c1	-2%	-11%
COc1ccc(-c2cc(NC(=O)c3c(C)noc3C(C)C)ccc2OC(F)F)cc1	-7%	-25%
CCc1nn(CCCC(=O)NCc2ccccc2Br)c(=O)c2cc3occc3n12	2%	0%
CCN1C(=O)CCc2cc(NS(=O)(=O)c3c(C)cc(C)cc3C)ccc21	64%[activator]	?
N#Cc1c(NC(=O)c2ccnn2C(F)F)sc2c1CCC2	3.2µM*	?
Cc1ccc(C(=O)Nc2ccc(Cl)c(C(F)(F)F)c2)c(Cl)c1	16%	221%[activator]
CCC1Oc2nc(SC)nnc2-c2ccccc2N1C(C)=O (stereo not given)	-3%	1%
COc1ccc(-c2cc3n(n2)CC(C)(C(=O)NCc2ccccc2)N(Cc2ccco2)C3=O)cc1 (stereo not given)	185%[activator]	11%
CCCCCCn1c(COc2ccccc2F)nnc1SCc1ccc(C(C)(C)C)cc1	14%	-8%
COc1ccc(OC)c(NC(=O)N2CCC(CN3CCCCC3)CC2)c1	-4%	-9%
CSc1ccc(/C=C(/C#N)C(=O)Nc2ccccc2Br)cc1	108%[activator]	30%[activator]
Cc1ccc(CNc2nc3ccccc3nc2NS(=O)(=O)c2ccc(F)cc2)cc1	-10%	-6%
CCCCn1nc(C(=O)NCCc2cccs2)c2ccccc2c1=O	92%[activator]	13%
c1ccc(CCNc2nc(-c3ccccc3)cs2)cc1	-18%	-13%
CCOC(=O)c1c(C)[nH]c(-c2ccccc2)c1-c1ccccc1	14%	39%[activator]
O=S1(=O)c2ccccc2N(Cc2ccccc2)c2ccccc21	7%	14%
Cn1nc(C(=O)Nc2ccccc2C(=O)NCC(F)(F)F)c2ccccc2c1=O	26%	54%[activator]
COc1cccc(C2Nc3ccccc3-c3nnc(SCc4ccccc4)nc3O2)c1OC (stereo not given)	-4%	5%
CC(Oc1c(F)c(F)c(F)c(F)c1F)C(=O)c1c[nH]c2ccccc12 (stereo not given)	22%	40%[activator]
(further entries)
SMILES	2A Renilla	StopGo FLuc
CSc1ccc(CCNc2ncnc3onc(-c4ccc(Cl)cc4)c23)cc1	-10%	-16%
O=C(COC(=O)c1ccc2ccccc2n1)Nc1ccccc1F	-14%	-3%
COc1cc(CN2CCCCCC2c2ccccc2Cl)ccc1OCC(N)=O (stereo not given)	-9%	-10%
COC(=O)c1cnc(/C=C/c2cccc(OC(C)C(=O)O)c2)s1 (stereo not given)	3%	37%[activator]
COc1ccc(-c2c(C)oc3cc(OC(=O)c4cccs4)ccc3c2=O)cc1	-11%	50%[activator]
O=S(=O)(Nc1cccc(-c2ccc(N3CCOCC3)nn2)c1)c1cc(C(F)(F)F)ccc1Cl	172%&158%[activator]	148%&172%[activator]
Cc1ccccc1COC(=O)CSc1cnc2ccccc2n1	-6%	-4%
O=C(NCc1ccccc1)c1cc2sccc2n1Cc1ccc(F)cc1	-3%	-9%
CCCCCCNC(=O)c1cccc(NC(=O)c2ccccc2)c1	37%[activator]	13%
Cc1cc2oc(=O)cc(CSc3cccc(C(F)(F)F)c3)c2cc1C(C)C	9%	7%
CC(=O)NNC(=S)Nc1ccc(Br)cc1Cl	6%	10%
CCCCOc1ccc(C(=O)N(Cc2ccc(C(C)C)cc2)C2CCS(=O)(=O)C2)cc1 (stereo not given)	-16%	-27%
COc1cc(C(=O)NCC(c2ccc3c(c2)OCO3)N2CCOCC2)cc(OC)c1OC (stereo not given)	-11%	-12%
O=Cc1c(-c2ccccc2)[nH]c2ccccc12	35%[activator]	134%[activator]
O=C1CCCC2=C1C(c1ccsc1)CC(=O)N2c1cccc(C(F)(F)F)c1 (stereo not given)	15%	0%
CN1CCN(C2(CNC(=O)COc3ccc4ccc(=O)oc4c3)CCCCC2)CC1	-2%	2%
COc1cccc(-c2nc(CS(=O)(=O)CC(=O)Nc3cc(F)ccc3F)c(C)o2)c1	-14%	?
Cc1c(C(=O)Nc2nccs2)[nH]c2c1C(=O)CCC2	-4%	135%[activator]
O=c1[nH]c(=O)n(CCc2ccccc2)c2nccc(-c3ccc(F)cc3)c12	-11%	-10%
COc1ccc(NC(=O)CN2C(=O)C(C)(C)c3ccccc32)cc1Cl	?	-4%
O=C(c1ccccc1OCc1nc(-c2ccccc2)no1)N1CCC(N2CCCCC2)CC1	-8%	184%[activator]
CCc1ccc(NC(=O)CC2C(=O)N(c3ccc(C)cc3)C(=O)N2C2CCCC2)cc1 (stereo not given)	37%[activator]	70%[activator]
COc1cc(C(c2c(O)c3ccccc3oc2=O)c2c(C)n(C)n(-c3ccccc3)c2=O)ccc1OCC(=O)O (stereo not given)	-11%	-12%
Cc1ccc(C(=O)n2nc(C)c(S(=O)(=O)N3CCOCC3)c2C)cc1	-7%	-7%
N#Cc1cccc(NC(=O)c2ccc3c(c2)OCCCO3)c1	0%	152%[activator]
Other records:
SMILES	2A Renilla	StopGo FLuc
CCOC(=O)c1c(S(=O)(=O)Nc2cc(Cl)ccc2OC)c(C)n(C)c1C	0%	-4%
O=S(=O)(c1ccccc1)n1nc(-c2ccco2)nc1NCc1ccccc1	14%	64%[activator]
N#C/C(=C\C=C\c1ccccc1)c1nc2ccccc2[nH]1	61%[activator]	167%[activator]
Cc1cc(C)cc(NC(=O)CN2C(=O)COc3ccc(S(=O)(=O)Nc4ccccc4)cc32)c1	95%[activator]	-10%
Cc1cc(SCC(=O)N(CCC#N)c2ccccc2)nc2ccccc12	14%	0%
Cc1c(C)c2ccc(OCC(=O)NC3CC(C)(C)NC(C)(C)C3)c(C)c2oc1=O	-16%	-12%
Cc1cccc(C)c1NC(=O)CN(CC(=O)Nc1c(C)cccc1C)Cc1nc2ccccc2o1	43%[activator]	2%
CCCCCCn1nc(C(=O)OCC(=O)c2cc(C)n(C)c2C)c2ccccc2c1=O	27%	29%
CC(C)c1ccc(NC(=O)c2cc(S(=O)(=O)NC3CCCCC3)ccc2F)cc1	204%[activator]	11%
COc1ccccc1-c1nc(-c2cc3ccccc3nc2OC)no1	-10%	3%
CCc1ccc(NC(=O)CC2C(=O)N(c3cccc(C)c3)C(=O)N2CCC(C)C)cc1 (stereo not given)	70%[activator]	-19%
COC(=O)c1ccc(NC(=O)c2nc3ccccc3nc2N2CCCCC2)cc1	3%	8%
COCCN(CC1CCCO1)CC1CCCO1 (stereo not given)	0%	1%
Cc1cc(CSc2nnc(-c3cccnc3)n2Cc2ccccc2)no1	-6%	-6%
COc1ccc(-c2noc(CSc3nnc(-c4ccncc4)n3-c3ccc(C)cc3)n2)cc1	-13%	-23%
CCOc1ccc(CN(C)C(=O)C2CCN(c3nc4ccccc4o3)CC2)cc1OC	?	?
CC(NC(=O)CCCn1c(=O)c2cccn2c2cccnc21)c1ccccc1 (stereo not given)	17%	-7%
CC(C(=O)NCc1ccccc1F)n1ccc2cc(S(=O)(=O)N3CCCC3)ccc21 (stereo not given)	30%[activator]	-8%
CN(C)CCNc1nc2c(c(=O)[nH]c(=O)n2C)n1Cc1cccc(Br)c1	1%	-6%
Cc1cc(-c2ccccc2)nc(=S)[nH]1	-13%	20%
CCOc1ccc(Sc2cc(C(=O)NC(C)c3ccccc3)c3ccccc3n2)cc1 (stereo not given)	-9%	-24%
CC(=O)NC1C(=O)N(CCOc2ccccc2)c2ccccc21 (stereo not given)	4%	8%
COc1ccc(-c2c(C)c3cc(OS(=O)(=O)c4ccccc4)ccc3oc2=O)cc1OC	-22%	?
COc1ccccc1C(=O)Nc1ccc2oc(-c3cccc(I)c3)nc2c1	-6%	69%[activator]
CCCN1C(=O)c2[nH]nc(-c3ccc(F)cc3)c2C1c1ccccn1 (stereo not given)	0%	0%
Remaining list, next part
SMILES	2A Renilla	StopGo FLuc
CCCCOC(=O)c1ccc(Nc2nc3ccc(C(=O)c4ccccc4)cc3n3cnnc23)cc1	-9%	-1%
CCN(CC)S(=O)(=O)c1ccc(NS(=O)(=O)c2cccc(C(=O)O)c2)cc1	12%[1.06 µM]	18%
Cc1cc2c(cc1S(=O)(=O)Nc1cc(C(F)(F)F)cc(C(F)(F)F)c1)OCC(=O)N2	234%[activator]	-7%
CC1Cc2ccccc2N1C(=O)CSc1nc2cc(S(=O)(=O)N3CCOCC3)ccc2o1 (stereo not given)	27%	-22%
Cn1c(=O)cc(SCC(=O)N2CCN(c3ccccc3F)CC2)c2ccccc21	-8%	3%
CCOc1ccc(N2C(=O)CCC2(C)C(=O)NC2CCCC2)cc1 (stereo not given)	-3%	-4%
C=CCOC(=O)C(C#N)c1nc2ccccc2nc1N1CCN(c2ccccc2OC)CC1 (stereo not given)	-6%	18%
O=C(Oc1ccc(Cl)cc1)C1CCCC(C(=O)Oc2ccc(Cl)cc2)C1 (stereo not given)	27%	59%[activator]
CCN(CCCNC(=O)c1cc2ccccc2c(OC)n1)C(C)=O	10%	14%
CCOc1cccc(C(c2c(C)n(C)n(-c3ccccc3)c2=O)c2c(C)n(C)n(-c3ccccc3)c2=O)c1OC	-8%	-11%
CN1CCN(c2ccc(NC(=O)COc3ccccc3F)cn2)CC1	-6%	32%[activator]
O=C(OCc1ccc(Br)cc1)c1cnccn1	-1%	-1%
CCn1c(SCC(=O)c2ccc(Br)s2)nnc1-c1ccc(OC)cc1	60%[activator]	5%
O=S(Cc1ccccc1)Cc1c(F)cccc1Cl (stereo not given)	19%	31%[activator]
O=C1Cc2cc(S(=O)(=O)N3CCN(C(=O)Nc4ccc(F)cc4)CC3)ccc2N1	-10%	-2%
CC(=O)c1cccc(NC(=O)C(C)Sc2nc3ccc(Cl)cc3c(=O)n2CC(C)C)c1 (stereo not given)	0%	-1%
CC(=O)Nc1cccc(NC(=O)C(=O)NCCc2sc(-c3ccccc3)nc2C)c1	-2%	19%
COc1ccc(C(=O)Nc2nc3c(s2)Cc2c(Br)ccc(OC)c2-3)cc1OC	10%	-3%
Cc1cccc(NC(=O)c2oc3ccccc3c2NC(=O)c2cc(=O)c3cc(Cl)ccc3o2)c1	-5%&-18%	3%&-7%
COc1ccc(-n2ccnc(NCCc3ccc(S(N)(=O)=O)cc3)c2=O)cc1	-10%	3%
CCCCNC(=O)CC1Nc2cc(C)c(C)cc2NC1=O (stereo not given)	-1%	22%
CCOC(=O)c1sc(NC2CCCC2)nc1C(F)(F)F	6%	97%[activator]
CCOc1cccc(C(=O)NC23CC4CC(CC(C4)C2)C3)c1	26%	175%[activator]
O=C(CCCc1nc(-c2cccs2)no1)NCc1ccc(-n2cncn2)nc1	4%	15%
COc1ccc(-n2c(SCC(=O)Nc3cccc(C)c3C)nc3c([nH]c4ccccc43)c2=O)cc1	-18%	-14%
Next results follow:
SMILES	2A Renilla	StopGo FLuc
CCN(C(=O)c1nn(Cc2ccccc2)c(=O)c2ccccc12)C(C)C	64%[activator]	12%
COc1ccc(OC)c(CNC(=O)CN2C(=O)CCn3nc(-c4cn(C)c5ccccc45)cc32)c1	-10%	-18%
O=S(=O)(NCCc1csc2nc(-c3ccc(Cl)cc3)nn12)c1ccc2c(c1)OCCO2	4%	-25%
CCOC(=O)c1c(NC(=O)c2cc(-c3cccc(OC)c3)on2)sc2c1CCCC2	-7%	-17%
CC(=O)Nc1ccc2nc(SCc3ccc(Cl)cc3)sc2c1	-2%	54%[activator]
Cc1c(C(=O)OCCOc2ccccc2)[nH]c2c1C(=O)CC(c1ccccc1)C2 (stereo not given)	-2%	-2%
COc1cc(N)c(Cl)cc1C(=O)NC1CCN(Cc2ccccc2)CC1	-17%	-27%
COc1ccc(Nc2sc(C(=O)c3ccc(Cl)cc3)c(N)c2C(N)=O)cc1	14%	-4%
CS(=O)(=O)N(CC(=O)NCCSCc1ccccc1)c1cc(C(F)(F)F)ccc1Cl	187%[activator]	-15%
Cc1nc(SCC(=O)Nc2ccccc2C)cc(-c2ccccc2)n1	-7%	-18%

Screening data: PubChem BioAssay, National Center for Advancing Translational Sciences (NCATS)
